Screening results: PubChem, several laboratories
PrP 5UTR inh: inhibition of PrP 5' UTR reporter expression; hit rate 0.35% among 340,000; inhibition, % (concentration not given with the values); cell-based PrP 5' UTR mRNA reporter, plate reader;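 active means every replicate at 50% or more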;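 further: 0 = median of the neutral control wells; tested in H4 reporter cells; numbers are from one replicate; inactives centre near -14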
Mtb hypoxia rep: PubChem AID 1159583 | M. tuberculosis hypoxia-regulated fluorescent reporter, fluorescence | fluorescence inhibition, % (test concentration not listed) | hit rate 0.1% among 300,000;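 active means 35 to 45% if threefold the growth effect, above 45% if 1.5-fold the growth effect; inactive means the rest, general growth blockers included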;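 further: wells of about 50 µL received 100 nL stock; 0% = vehicle wells and 100% = reference inhibitor wells; whole bacteria with a GFP reporter of the hypoxia response; strong numbers were not always called active; many hits fall short of the cut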
RN4220 kill: growth inhibition of S. aureus RN4220, primary screen, OD600; 16 h; inhibition, % (no concentration beside the values); hit rate 0.33% among 330,000;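 active means z-score of -3 or lower and OD600 up to 0.18 on both plates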;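 further: plate controls were untreated cells for no effect and reference antibiotic for full effect; stock transfer was 100 nL into about 80 µL; one replicate is shown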
BJeLR viability: MLPCN primary cell-based screen for lethality selective to Ras in HRASV12 cells | hit rate 0.17% among 300,000 | BJeLR (HRASV12) viability, CellTiter-Glo ATP luminescence, 48 h; reference of the scale not given here | inhibition, % (no concentration beside the values) | AID 1554, 2009;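 active means replicate mean above 50%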;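 further: 50 nL library stock added to about 25 µL; numbers are from one replicate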
Bead autofluor: compound fluorescence in toxin protease inhibitor counterscreen; compound autofluorescence counterscreen, microsphere flow cytometry; hits give high values; fluorescence intensity (no concentration beside the values); hit rate 3.1% among 360,000;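 active means at least 3 SD above the mean of all compounds, about 16000 in these data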;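 further: 100 nL of 1 mM stock went into each well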
ugtP null kill: growth inhibition of ugtP-null S. aureus, primary screen, RN4220 ugtP deletion, OD600; 16 h; some inactives read as strong as hits; hit rate 0.54% among 330,000; growth inhibition, % (test concentration not listed); AID 1259309, 2017;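 active means z-score under -3 and OD600 up to 0.15 on both plates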;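 further: plate controls were untreated wells for no effect and antibiotic for full effect; wells of about 80 µL received 100 nL stock; the first replicate is given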
Mtb hypoxia rep growth: recorded beside Mtb hypoxia rep, whose call it bears; growth inhibition, %; measured here: M. tuberculosis growth (absorbance);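 0% = vehicle and 100% = reference antibiotic; read after six days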
* = called active by the depositor. The order is random; about 4% have a hit in one of these screens.

Results for Nc1nonc1-n1nnc(C(=O)NN=Cc2cccc(Cl)c2)c1-c1cccs1 ?
Mtb hypoxia rep: 0; RN4220 kill: 4.8; ugtP null kill: 0; Mtb hypoxia rep growth: -3

What do the screens show for `CCOc1ccc2c(c1)C(c1ccc(C)o1)=NNC(c1ccncc1)=N2`?
PrP 5UTR inh: -19; Mtb hypoxia rep: -4; RN4220 kill: 2.4; BJeLR viability: -5; Bead autofluor: 4126; ugtP null kill: 6; Mtb hypoxia rep growth: 3

What do the screens show for `Cc1c(CNCC(C)c2ccccc2)c(C(=O)O)c(C)n1Cc1ccccc1` (centres undefined)?
PrP 5UTR inh: -38; Mtb hypoxia rep: -9; RN4220 kill: -6.4; BJeLR viability: 1; Bead autofluor: 4274; ugtP null kill: -3; Mtb hypoxia rep growth: -23

How did Cc1cc(C(=O)NC2CCCc3c2cnn3-c2ccc(C(C)(C)C)cc2)n[nH]1 (centres undefined) do in these assays?
PrP 5UTR inh: -3; Mtb hypoxia rep: -4; RN4220 kill: 2.2; BJeLR viability: -5; Bead autofluor: 4631; ugtP null kill: 4; Mtb hypoxia rep growth: -7

Results for CCOC(=O)Cn1c(S(=O)(=O)Cc2cccc(F)c2)nc(-c2ccccc2)c1-c1ccccc1 ?
PrP 5UTR inh: -18; Mtb hypoxia rep: 13; RN4220 kill: -2.5; BJeLR viability: 9; Bead autofluor: 7957; ugtP null kill: 11; Mtb hypoxia rep growth: 5

What do the screens show for `CCCNC(=O)c1oc2ccc3c(c2c1C)C(=O)CC(C)(C)O3`?
PrP 5UTR inh: -92; Mtb hypoxia rep: 3; RN4220 kill: -5.0; BJeLR viability: -2; Bead autofluor: 3812; ugtP null kill: -11; Mtb hypoxia rep growth: 7

How did COc1ccc(CN2CN(S(=O)(=O)c3ccccc3)c3nc4ccccc4nc32)cc1 do in these assays?
PrP 5UTR inh: -4; Mtb hypoxia rep: 11; RN4220 kill: 3.8; BJeLR viability: 13; Bead autofluor: 5456; ugtP null kill: 11; Mtb hypoxia rep growth: 8

What do the screens show for `CCOc1ccc(OCCC(=O)NNC(=O)c2cc(OC)c(OC)c(OC)c2)cc1`?
PrP 5UTR inh: -6; Mtb hypoxia rep: 2; RN4220 kill: 6.9; BJeLR viability: -7; Bead autofluor: 6015; ugtP null kill: 6; Mtb hypoxia rep growth: 3

How did CCOC(=O)C(=CNc1ccc2c(c1)CCN2C(C)=O)C(=O)OCC do in these assays?
PrP 5UTR inh: -102; Mtb hypoxia rep: 9; RN4220 kill: 2.9; BJeLR viability: -10; Bead autofluor: 4471; ugtP null kill: 10; Mtb hypoxia rep growth: 11

Results for COc1ccccc1NC(=O)c1ccc(CSc2ncccn2)cc1 ?
Mtb hypoxia rep: 3; RN4220 kill: -1.7; BJeLR viability: 3; ugtP null kill: -14; Mtb hypoxia rep growth: 4

What do the screens show for `CN(CC(=O)Nc1ccc(F)cc1)CC(=O)N1CCCCCC1`?
PrP 5UTR inh: -2; Mtb hypoxia rep: -4; RN4220 kill: -0.9; Bead autofluor: 3740; ugtP null kill: -1; Mtb hypoxia rep growth: 14

What do the screens show for `COc1cc(C=Nn2cnn(Cc3ccccc3Cl)c2=S)cc(OC)c1OC`?
Mtb hypoxia rep: -3; RN4220 kill: 1.0; ugtP null kill: 0; Mtb hypoxia rep growth: 7

How did COc1ccc2cc3c(N)c(C(=O)N4CCCC4)sc3nc2c1 do in these assays?
RN4220 kill: -5.3; BJeLR viability: -4; ugtP null kill: 8

How did O=C(CN1CCN(C(=O)c2ccco2)CC1)Nc1cc(C(F)(F)F)ccc1Cl do in these assays?
PrP 5UTR inh: -23; RN4220 kill: 1.1; BJeLR viability: -3; Bead autofluor: 2567; ugtP null kill: -4

How did CCOC(=O)C(C)Sc1nc(N2CCOCC2)c2c(c1C#N)CC(C)(C)OC2 (centres undefined) do in these assays?
Mtb hypoxia rep: 9; RN4220 kill: 0.4; BJeLR viability: -7; ugtP null kill: 10; Mtb hypoxia rep growth: 4

How did CCN(C(=O)COC(=O)c1c(-c2ccccc2)noc1C)c1c(N)n(Cc2ccccc2)c(=O)[nH]c1=O do in these assays?
PrP 5UTR inh: -2; Mtb hypoxia rep: 0; RN4220 kill: -1.2; BJeLR viability: 8; Bead autofluor: 5544; ugtP null kill: 2; Mtb hypoxia rep growth: 1

How did Nc1nnc(SCc2ccccc2)n1-c1ccccc1 do in these assays?
PrP 5UTR inh: -24; Mtb hypoxia rep: 8; RN4220 kill: 9.4; BJeLR viability: 3; Bead autofluor: 17516*; ugtP null kill: 2; Mtb hypoxia rep growth: 17

What do the screens show for `Cc1cccc(-n2c(O)c(C=NCCCN3CCOCC3)c3ccccc3c2=O)c1`?
PrP 5UTR inh: -14; Mtb hypoxia rep: 12; RN4220 kill: 4.2; BJeLR viability: 3; Bead autofluor: 8853; ugtP null kill: -3; Mtb hypoxia rep growth: -1

How did CC1(C)OC2C(O1)[C@@H](CO)O[C@H]2n1cnc2c(N)ncnc21 (some centres undefined) do in these assays?
PrP 5UTR inh: -2; Mtb hypoxia rep: -7; RN4220 kill: -2.2; BJeLR viability: 7; Bead autofluor: 4715; ugtP null kill: -9; Mtb hypoxia rep growth: 15

What do the screens show for `Cc1cc(=O)oc2cc3c(cc12)OCO3`?
PrP 5UTR inh: -27; Mtb hypoxia rep: -8; RN4220 kill: 4.1; BJeLR viability: 2; Bead autofluor: 4071; ugtP null kill: -6; Mtb hypoxia rep growth: 8

Continued (two carried over from the part before).
How did CC1(C)OC2C(O1)[C@@H](CO)O[C@H]2n1cnc2c(N)ncnc21 (some centres undefined) do in these assays?
PrP 5UTR inh: -2; Mtb hypoxia rep: -7; RN4220 kill: -2.2; BJeLR viability: 7; Bead autofluor: 4715; ugtP null kill: -9; Mtb hypoxia rep growth: 15

What do the screens show for `Cc1cc(=O)oc2cc3c(cc12)OCO3`?
PrP 5UTR inh: -27; Mtb hypoxia rep: -8; RN4220 kill: 4.1; BJeLR viability: 2; Bead autofluor: 4071; ugtP null kill: -6; Mtb hypoxia rep growth: 8

How did CCCCCCOC(=O)Nc1ccc(S(=O)(=O)Nc2cccc([N+](=O)[O-])c2)cc1 do in these assays?
PrP 5UTR inh: -34; Mtb hypoxia rep: 14; RN4220 kill: 5.1; BJeLR viability: 2; Bead autofluor: 8782; ugtP null kill: -8; Mtb hypoxia rep growth: 1

Results for CC(C)(C)C(=O)N1CCN(S(=O)(=O)c2ccc3c(c2)OCCCO3)CC1 ?
PrP 5UTR inh: -33; Mtb hypoxia rep: 3; RN4220 kill: 5.6; BJeLR viability: 1; Bead autofluor: 6014; ugtP null kill: 8; Mtb hypoxia rep growth: 2

How did Cc1ccc(O)c(C=NNC(=O)CN2CCCC2)c1 do in these assays?
Mtb hypoxia rep: 0; RN4220 kill: 5.0; ugtP null kill: 4; Mtb hypoxia rep growth: 9

What do the screens show for `O=C(c1ccccc1)N1N=C(C(F)(F)F)CC1(O)c1ccccc1O` (centres undefined)?
PrP 5UTR inh: 0; Mtb hypoxia rep: -6; RN4220 kill: 6.7; BJeLR viability: 3; Bead autofluor: 3187; ugtP null kill: -10; Mtb hypoxia rep growth: 1

Results for COc1ccc(CCNC(=O)c2cc(-c3cc(C)c(C)cc3O)n[nH]2)cc1OC ?
PrP 5UTR inh: -7; Mtb hypoxia rep: 1; RN4220 kill: 10; BJeLR viability: 0; Bead autofluor: 22479*; ugtP null kill: -18; Mtb hypoxia rep growth: 14

How did CCCOc1ccc(Oc2ccc(S(=O)(=O)N3CCN(C)CC3)cn2)cc1 do in these assays?
PrP 5UTR inh: -23; Mtb hypoxia rep: -4; RN4220 kill: 0.6; BJeLR viability: -2; Bead autofluor: 6314; ugtP null kill: 10; Mtb hypoxia rep growth: -6

What do the screens show for `OCCN=C1CCCc2c1[nH]c1ccc(Br)cc21`?
PrP 5UTR inh: 15; Mtb hypoxia rep: 0; RN4220 kill: -18; BJeLR viability: -4; Bead autofluor: 3066; ugtP null kill: -19; Mtb hypoxia rep growth: 7

Results for COc1ccc(Cl)cc1-n1c(=S)sc2c(=O)[nH]c(SCC(=O)NCCC(C)C)nc21 ?
PrP 5UTR inh: -13; Mtb hypoxia rep: 0; RN4220 kill: 5.0; BJeLR viability: 6; Bead autofluor: 4058; ugtP null kill: 6; Mtb hypoxia rep growth: 4

What do the screens show for `N#CC(Cn1c[n+](NC(=O)Nc2ccccc2)cn1)=NO`?
Mtb hypoxia rep: 14; RN4220 kill: 6.3; ugtP null kill: 15; Mtb hypoxia rep growth: 4

How did Oc1ccc(-c2nnc(-c3ccccc3)c(-c3ccccc3)n2)cc1 do in these assays?
Mtb hypoxia rep: 13; RN4220 kill: 4.6; BJeLR viability: 4; ugtP null kill: -1; Mtb hypoxia rep growth: 2

Reprinted at random: 2 compounds from above
Results for CC(C)(C)C(=O)N1CCN(S(=O)(=O)c2ccc3c(c2)OCCCO3)CC1 ?
PrP 5UTR inh: -33; Mtb hypoxia rep: 3; RN4220 kill: 5.6; BJeLR viability: 1; Bead autofluor: 6014; ugtP null kill: 8; Mtb hypoxia rep growth: 2

What do the screens show for `N#CC(Cn1c[n+](NC(=O)Nc2ccccc2)cn1)=NO`?
Mtb hypoxia rep: 14; RN4220 kill: 6.3; ugtP null kill: 15; Mtb hypoxia rep growth: 4

Following part:
Results for COc1cccc(-c2nc(NC3CCCC3)c3ccccc3n2)c1O ?
PrP 5UTR inh: -18; Mtb hypoxia rep: -6; RN4220 kill: -16; BJeLR viability: -2; Bead autofluor: 4032; ugtP null kill: -31; Mtb hypoxia rep growth: 0

How did Cc1ccc(-c2nc(NCCCO)c3ccccc3n2)cc1 do in these assays?
PrP 5UTR inh: -28; Mtb hypoxia rep: -5; RN4220 kill: 0.8; BJeLR viability: -1; Bead autofluor: 3519; ugtP null kill: -6; Mtb hypoxia rep growth: 4

How did COc1ccc([N+](=O)[O-])cc1NC(=O)C1(c2ccc(OC)c(OC)c2)CCOCC1 do in these assays?
PrP 5UTR inh: -18; Mtb hypoxia rep: 8; RN4220 kill: 2.9; BJeLR viability: 4; Bead autofluor: 4249; ugtP null kill: 0; Mtb hypoxia rep growth: 10

Results for CC(=O)OCC1OC(OCc2cn(CC3CCC(Cn4cc(COC5OC(COC(C)=O)C(OC(C)=O)C(OC(C)=O)C5OC(C)=O)nn4)O3)nn2)C(OC(C)=O)C(OC(C)=O)C1OC(C)=O (centres undefined) ?
Mtb hypoxia rep: 5; RN4220 kill: 3.1; ugtP null kill: 3; Mtb hypoxia rep growth: 7

How did COc1ccc(/C=N/Nc2nc(N3CCCC3)nc(N3CCCC3)n2)cc1O do in these assays?
PrP 5UTR inh: -7; BJeLR viability: -9; Bead autofluor: 8379

How did CCOC(=O)c1cc(C(=O)Nc2ccc(C)c(F)c2)nn1C do in these assays?
PrP 5UTR inh: -121; Mtb hypoxia rep: 9; RN4220 kill: 6.7; BJeLR viability: 8; Bead autofluor: 21479*; ugtP null kill: 5; Mtb hypoxia rep growth: 9

What do the screens show for `CC1(C2CC2)NC(=O)N(CC(=O)Nc2cc(S(=O)(=O)N3CCCCC3)ccc2Cl)C1=O` (centres undefined)?
PrP 5UTR inh: -32; Mtb hypoxia rep: 5; RN4220 kill: 1.0; Bead autofluor: 2830; ugtP null kill: 4; Mtb hypoxia rep growth: 1

Results for Cc1cc(Cl)ccc1NC(=S)NCc1cccs1 ?
PrP 5UTR inh: -17; RN4220 kill: -1.5; BJeLR viability: 6; Bead autofluor: 4567; ugtP null kill: -3

What do the screens show for `Cn1ccnc1/C(=N\NC(=O)c1ccc(O)cc1)c1cccc([N+](=O)[O-])c1`?
PrP 5UTR inh: -11; BJeLR viability: -7; Bead autofluor: 4362

What do the screens show for `CCOc1ccc(-c2cnc(NCc3cccc4ccccc34)n2CCOC)cc1`?
PrP 5UTR inh: -23; RN4220 kill: 19; BJeLR viability: 18; Bead autofluor: 4219; ugtP null kill: 13

What do the screens show for `CC(=O)c1cccc(NC(=O)c2nc(-c3ccccc3)oc2C)c1`?
PrP 5UTR inh: -15; Mtb hypoxia rep: 17; RN4220 kill: 13; BJeLR viability: 5; Bead autofluor: 4575; ugtP null kill: 10; Mtb hypoxia rep growth: 6

Results for Nc1ccc2c3c(cccc13)-c1ccccc1-2 ?
PrP 5UTR inh: -32; Mtb hypoxia rep: -6; RN4220 kill: 71; Bead autofluor: 4925; ugtP null kill: 85*; Mtb hypoxia rep growth: 16
